Screening results from PubChem.
rRNA inh HTS: selective bacterial rRNA inhibition in E. coli. GFP signal change (wild-type ribosome), % (no concentration beside the values). 1.6% of 350,000 active. E. coli WT GFP vs humanized-ribosome RFP mutants, fluorescence, 24 h; hits give low values; DMSO median 0, no signal -100;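 active = significant combined selectivity score with lowered wild-type GFP, culture density cut under 30%, mutant RFP and density less affected; inactive = any of these conditions unmet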; note: one replicate is shown; some compounds called inactive have numbers as strong as hits
T cruzi repl: T. cruzi replication inhibition; inhibition, % (no concentration beside the values); 1.4% of 300,000 active; T. cruzi beta-gal in NIH3T3, luminescence, 90 h;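 active = mean inhibition across valid replicates above about 55%, limit read from the data; inconclusive = mean below that limit but half or more replicates reach it; inactive = mean below it, under half of replicates reach it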;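 note: signal also drops with host cell toxicity which is not excluded here; 0% = plate median of DMSO wells and 100% = zero luminescence signal; higher percent means less beta-gal luminescence so fewer parasites; stock transfer was 50 nL into about 50 µL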
ALR inh: human ALR oxidase inhibition via reduced H2O2. purified ALR, DTT oxidation, H2O2 HRP-luminol luminescence. inhibition, % (concentration not given with the values). P55789. 3.8% of 290,000 active. AID 485317;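 active = mean and each replicate at 75% or more; inconclusive = only one of the two met; inactive = neither met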;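 note: stock transfer was 7.5 nL into about 7.5 µL; 0% = neutral wells and 100% = wells with inactivated enzyme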
Target sequence (P55789 whole entry, looked up): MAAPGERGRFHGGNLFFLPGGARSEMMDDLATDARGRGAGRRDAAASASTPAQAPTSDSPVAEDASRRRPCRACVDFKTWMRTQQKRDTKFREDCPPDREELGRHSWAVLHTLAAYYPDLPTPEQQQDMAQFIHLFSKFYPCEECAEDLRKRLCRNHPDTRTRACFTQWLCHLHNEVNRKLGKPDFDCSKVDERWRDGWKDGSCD
Beta2AR agonist: activates human beta-2 adrenergic receptor causing internalization; Am2.2-beta2AR cells, FAP receptor internalization, flow cytometry; reference of the scale not given here; 0.43% of 340,000 active; response, % (concentration not given with the values); AID 504454;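 active = response above a set limit, near 3 SD of response in nonfluorescent compounds, cut at about 42% in these data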;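 note: stock transfer was 100 nL into about 11 µL; a reference agonist was the positive control; negative values mostly stem from fluorescent compounds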
Target sequence (P07550 whole entry, looked up): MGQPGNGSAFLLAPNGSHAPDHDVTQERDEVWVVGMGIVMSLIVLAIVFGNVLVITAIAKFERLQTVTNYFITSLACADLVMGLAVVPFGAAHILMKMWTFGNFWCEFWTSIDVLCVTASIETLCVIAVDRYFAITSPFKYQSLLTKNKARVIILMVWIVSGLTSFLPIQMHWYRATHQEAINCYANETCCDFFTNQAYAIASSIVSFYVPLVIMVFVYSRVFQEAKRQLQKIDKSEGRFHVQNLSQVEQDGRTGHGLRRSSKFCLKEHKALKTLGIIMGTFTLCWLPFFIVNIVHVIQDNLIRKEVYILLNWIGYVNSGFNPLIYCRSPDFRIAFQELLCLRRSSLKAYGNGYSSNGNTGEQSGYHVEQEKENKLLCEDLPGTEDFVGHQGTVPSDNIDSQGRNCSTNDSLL
Beta cell apopt: blocks beta cell apoptosis. INS-1E cytokine-induced death, ATP luminescence, 48 h; percent of positive-control rescue, neutral wells zero. 0.8% of 300,000 active. AID 435005. protection from apoptosis, % (test concentration not listed);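 active = all replicates at 75% or more, or half of them and the mean; inconclusive = half reach 75% but not the mean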;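 note: 0% = cytokine-treated negative control wells and 100% = positive control rescue; higher means more ATP so stronger rescue from cytokine killing; wells of about 40 µL received 100 nL stock; the first replicate is given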
Calb FLC: affects C. albicans growth with fluconazole | C. albicans CaCi-2 (fluconazole-resistant clinical isolate) + fluconazole, Alamar Blue growth, 48 h | growth inhibition, % (concentration not given with the values) | 0.57% of 300,000 active | AID 1979;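 active = most replicates above 75%; inconclusive = exactly half above 75%; inactive = most below 75%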;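 note: all wells also contain fluconazole at 8 µg/ml as a sub-toxic cotreatment; 0% = median of DMSO wells and 100% = median of geldanamycin control wells; wells of about 8 µL received 7.5 nL stock; the first replicate is given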
Bfl-1 A1 inh: inhibitors of the anti-apoptotic protein A1, read as caspase activation; caspase activation, % (no concentration beside the values); 0.066% of 330,000 active; AID 2462; MEF A1-2A-BIM cells, Caspase-Glo 3/7 luminescence, 3 h; percent of clofoctol response, vehicle zero;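 active = over half of replicate activation scores above 10%, or exactly half above 10 with the replicate mean above 10; inconclusive = replicate mean below 10 yet half the replicates above 10; inactive = over half of replicates below 10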;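 note: wells of about 30 µL received 50 nL stock; many hits fall short of the cut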
LANA-H2B inh: blocks KSHV LANA binding to histone H2A/H2B; inhibition, % (concentration not given with the values); 0.6% of 320,000 active; Q9QR71; AID 2629; cell-free LANA-H2A/H2B peptide, fluorescence polarization; in the data active = inhibition mostly above about 10%, no sharp cut-off; inactive = mostly below about 6.7%;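 note: stock transfer was 7.5 nL into about 10 µL; 0% = median of vehicle wells and 100% = median of positive control wells; one replicate is shown; the record names a cut of 25% in any replicate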
rRNA inh HTS OD600: second read-out of rRNA inh HTS, no call of its own (marks repeat the call); OD600 change, %; measured here: OD600 growth;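 optical density of the mix in the first replicate; 0 = DMSO median and -100 = no signal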
rRNA inh HTS RFP: recorded beside rRNA inh HTS, whose call it bears; RFP signal change, %; measured here: RFP humanized mutant strains;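 first replicate; 0 = DMSO median and -100 = no signal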
Active calls of the source: *; ? = inconclusive; . = no result given; + = active, no number; & = joins results of further samples.

SMILES	rRNA inh HTS	rRNA inh HTS OD600	rRNA inh HTS RFP	T cruzi repl	ALR inh	Beta2AR agonist	Beta cell apopt	Calb FLC	Bfl-1 A1 inh	LANA-H2B inh
Cc1ccc(N(C(=O)c2csnn2)C(C(=O)NC2CCCCC2)c2ccccn2)cc1 (stereo not drawn)	5	3	-0.9	-7	1	4	1	-3	0.1	1.9
O=C(O)c1ccc(-n2c(/C=C/c3ccccc3)nc3ccccc3c2=O)cc1	-14	-17	20	6	99*	-2	-3	0	1.2	-1.2
COc1ccc(C(=O)N/C(=C\c2ccccc2)C(=O)NCc2cccnc2)cc1	0	2	-0.2	-3	.	-4	7	5	0.2	-1.8
COC(=O)c1[nH]c2ccccc2c1NS(=O)(=O)c1ccc(OC)cc1OC	.	.	.	-11	30	-4	-3	1	1.0	2.9
COc1ccccc1NC(=O)c1ccc(CSc2ccccc2)o1	-20	-26	-1.3	-2	0	1	-4	19	-0.7	1.0
COc1ccc(CC(=O)N/N=C/c2cccn2-c2ccc([N+](=O)[O-])cc2)cc1OC	.	.	.	-6	1	-9	0	-11	0.3	-4.1
NC(=O)C1CCN(c2ccc([N+](=O)[O-])cc2Cl)CC1	0	3	-1.8	-6	-6	4	.	25	-0.5	3.7
CN(C)CCCN(Cc1cc2cc3c(cc2[nH]c1=O)OCCO3)C(=O)NC1CCCCC1	-1	3	-5.2	11	.	-6	4	4	-0.2	0.0
NC(=O)NC(=O)COC(=O)CCSc1ccccc1	19	10	2.8	-6	-5	6	.	-3	0.3	-2.7
CCN1CCN(C(=O)/C=C/c2ccc(F)cc2)CC1	-5	-2	-1.5	-17	6	-6	.	-9	-0.7	0.5
CCOC(=O)N1CCC(N2Cc3cccc(C(=O)Nc4cccc(F)c4)c3C2=O)CC1	12	5	-3.7	1	-3	5	3	7	-0.3	4.0
COC(=O)CCC(=O)Nc1cc(S(=O)(=O)Nc2ccc(Cl)cc2)ccc1N1CCOCC1	.	.	.	-16	.	-5	-6	?	2.5	4.4
CCN1C(=NCCc2cccnc2)N[C@@H](c2ccccc2)C(C(=O)OC)=C1C	.	.	.	2	-15	4	-5	-6	0.3	1.7
Cc1cc(C)n(-c2nc(NCC3CCCO3)c3c4c(sc3n2)COC(C)(C)C4)n1 (stereo not drawn)	.	.	.	4	-11	.	18	5	-0.1	-0.8
CCN(C[C@H]1N[C@@](Cc2ccccc2)(C(=O)OC)[C@H]2C(=O)N(Cc3ccccc3)C(=O)[C@@H]12)C(=O)COc1ccccc1	-1	-4	2.1	.	0	5	-3	.	-0.4	+
O=C(NC1CCCCCCC1)c1ccccc1-c1ccccc1	-2	-9	-7.5	10	0	-9	0	-1	1.3	-7.1
CC(NS(=O)(=O)c1ccc(OCC(=O)N2CCOCC2)c(Cl)c1)c1ccccc1 (stereo not drawn)	.	.	.	.	-38	1	-3	-1	0.3	2.0
C=CC[C@H](CC(=O)N[C@H](CO)Cc1ccccc1)C(=O)N[C@H](COC(=O)[C@@H](CC=C)CC(=O)OC(C)(C)C)Cc1c[nH]c2ccccc12	7	-6	-8.1	.	0	4	8	.	-0.7	-2.5
CCc1ccc(-n2cccc2/C=C2/C(=N)N3C(=NC2=O)SN=C3S(C)(=O)=O)cc1	.	.	.	-28	58	3	-12	39	1.3	-12
C[C@H](CO)N1C[C@H](C)[C@@H](CN(C)S(=O)(=O)c2ccccc2)Oc2ccc(NC(=O)Nc3ccc4c(c3)OCO4)cc2C1=O	-6&-2	-11&-3	1.9&14	.	-2	1	6	.	0.6	8.8
CC(=O)OC[C@H]1O[C@@H](n2ncc(=O)[nH]c2=O)[C@H](OC(C)=O)[C@@H]1OC(C)=O	.	.	.	5	.	.	-3	.	0.8	0.4
O=C(NC1CCCCC1)C1CCCN1C(=O)NCc1ccccc1 (stereo not drawn)	.	.	.	-1	.	6	1	6	0.1	-5.6
O=C1c2ccccc2C(O)N1c1ccccc1 (stereo not drawn)	-6	-5	-1.7	-13	-24	-3	-1	-5	0.0	-6.0
COc1ccc(N2CCN(C(=O)CCNC(=O)c3ccccc3)CC2)cc1	-2	4	0.6	-8	47	3	1	-1	-0.1	-6.0
Cc1ccccc1Cn1c(=N)n(CC(=O)c2ccco2)c2ccccc21	.	.	.	3	6	20	2	-5	0.1	-0.4
CC[C@@H](C)[C@H](CNC)NC[C@@H](Cc1cccc2ccccc12)NCCc1cccc(C(F)(F)F)c1	-59	-78	-35	38	.	12	14	112*	0.2	7.0
COc1ccc(-c2ccc(-c3noc(-c4ccccc4)n3)c(OC)n2)cc1	9	-4	-1.3	-4	19	-1	-3	-2	-0.3	-0.6
C/C(=N\NC(=O)c1ccc(NS(=O)(=O)c2cccs2)cc1)c1ccc(C(C)(C)C)cc1	-1	10	-3.4	19	18	12	5	8	-0.5	4.5
COCc1cc(=O)[nH]c(Cc2c(Cl)cccc2Cl)n1	1	-1	1.2	-7	.	-3	.	-10	0.6	-7.6
O=C(/C=C/Nc1ccc(F)c(F)c1)c1ccc(Br)cc1	20	16	2.5	5	.	-3	-1	-24	-4.6	-8.3
O=C(NC(Cc1c[nH]c2ccccc12)C(=O)O)/C(=C\c1ccccc1)NC(=O)c1ccccc1 (stereo not drawn)	1	8	-1.9	1	41	0	.	0	0.3	-1.5
O=C(CCN1C(=O)S/C(=C\c2ccccc2)C1=O)N1CCOCC1	0	1	0.1	3	-7	-7	-10	-3	-0.4	1.7
CC(NC(=O)C(C)N1c2cccc3cccc(c23)S1(=O)=O)c1ccccc1 (stereo not drawn)	-2	-6	-0.9	9	-21	1	5	33	-0.1	3.1
COc1ccccc1-n1c(SCC(=O)Nc2cc(C)on2)nc2c([nH]c3ccccc32)c1=O	-4	-11	4.7	11	-5	7	0	18	-0.2	0.3
C/C(=N\Nc1ccc(S(N)(=O)=O)cc1[N+](=O)[O-])c1cccnc1	8	19	-0.1	6	-2	-10	0	-1	0.6	1.7
O=C(NCCCN1CCCC1=O)c1ccc(S(=O)(=O)Nc2ccccc2F)cc1	4	-1	-0.7	-7	14	-4	-2	-4	-0.1	-0.8
C[C@H](NC(=O)c1nc[nH]c1C(=O)N[C@@H](Cc1ccccc1)C(=O)OC(C)(C)C)C(=O)OCc1ccccc1	9	0	3.4	-8	.	0	-10	-2	0.2	-3.6
O=C(Nc1cccnc1)c1cccc(S(=O)(=O)N2CCCC2)c1	2	-3	-3.1	-14	-8	-2	1	-2	-0.9	1.9
CNC(=O)c1c(O)c2cccc3c2n(c1=O)CC3	.	.	.	-8	-13	-3	-4	12	-1.8	5.2
COc1ccc(-c2c(-c3ccc4c(c3)OCO4)noc2C)cn1	-19	-22	-21	2	.	-11	4	-6	0.1	2.1
CC(=O)c1ccccc1NC(=O)CSc1nc2ccccc2c(=O)n1CCCN1CCOCC1	19	18	1.3	.	-2	-1	-23	.	?	-0.1
COc1ccc(OCC(=O)Nc2ccccc2Cl)cc1	22	12	1.4	-9	-10	-1	-5	-3	-2.8	-1.7
CS(=O)(=O)N1CCC(C(=O)Nc2ccccc2Sc2ccccc2)CC1	.	.	.	-5	.	-6	-1	17	-0.4	1.1
Cc1cc(NC(=O)c2ccc(NC(=O)CC(C)C)cc2)no1	.	.	.	-10	-3	-3	1	-10	?	4.3
O=C(CN1CCN(c2ccccn2)CC1)N1CCc2ccccc21	11	6	0.7	1	-7	-2	6	12	-0.7	1.6
Cc1ccnc(NS(=O)(=O)c2ccc(NC(=O)Cc3ccc(Cl)cc3)cc2)n1	-7	11	1.4	-2	.	1	-2	-2	-0.3	-4.4
Cc1ccc2[nH]c(CCN(C)C)c(CN3CCOCC3)c2c1	12	17	-3.4	.	.	0	-5	.	-0.2	0.9
O=C(c1ccc2nccnc2c1)N1CCN(c2cccc(C(F)(F)F)c2)CC1	-11	-17	-5.6	.	-2	17	5	.	0.9	.
CC1=C([N+](=O)[O-])C(c2ccc3c(c2)OCO3)N(C)C(=O)N1C (stereo not drawn)	12	14	2.5	14	12	-1	-6	0	1.0	2.7
Cn1c(=O)n(Cc2ccco2)c(=N)c2c3c(sc21)CCC3	.	.	.	12	76*	-5	1	7	0.5	0.8
COc1cccc(/C=C/C(=O)OCC(=O)Nc2cccc(S(=O)(=O)N3CCCCC3)c2)c1OC	.	.	.	-22	-2	2	4	?	-1.2	0.1
CC1CN(CCn2cnc3c(N)ncnc32)CC(C)O1 (stereo not drawn)	7	-7	1.6	-6	9	7	-1	-6	0.9	-1.8
Cc1ccc(C2(C)NC(=O)N(CC(=O)Nc3ccc(-c4nc5ccc(C)cc5s4)cc3)C2=O)cc1 (stereo not drawn)	9	3	1.5	32	0	8	12	-10	-1.7	-8.6
COc1ccc(NC(=O)CN2C(=O)CSc3ccc(S(=O)(=O)N4CCC(C)CC4)cc32)cc1	3	-1	1.3	-25	-2	-2	7	-7	-0.2	-1.6
CCc1ccc(OCC(=O)Nc2ccc(CN3CCCCC3)cc2)cc1	16	6	-0.5	-7	-2	11	-1	7	-0.5	-7.0
CCN(CC(=O)Nc1ccccc1OC)C(=O)Cn1cnc2ccccc2c1=O	.	.	.	-8	-1	-1	-5	-6	-0.3	-4.9
CN(C)S(=O)(=O)c1ccc(C(=O)Nc2nnc(SCC(=O)NCC3CCCO3)s2)cc1 (stereo not drawn)	4	2	-2.0	-2	94*	5	2	1	-0.1	-0.7
CCOC(=O)c1c(-c2ccc(OC)cc2)csc1/N=C/C1C(=O)CCCC1=O	-15	-8	48	10	48	-4	.	6	0.3	1.9
COc1ccc(CCNC(=O)CSc2nc3[nH]ncc3c(=O)n2-c2ccccc2Br)cc1OC	9	2	0.7	9	-8	0	-5	-4	-0.3	1.6
O=C(CSc1nnc(CNc2cccc(Cl)c2)o1)OC1CCCCC1	.	.	.	-1	25	12	.	-6	0.7	-0.5

Next section:
SMILES	rRNA inh HTS	rRNA inh HTS OD600	rRNA inh HTS RFP	T cruzi repl	ALR inh	Beta2AR agonist	Beta cell apopt	Calb FLC	Bfl-1 A1 inh	LANA-H2B inh
NC(=O)C1(N2CCCCC2)CCN(c2nc(-c3ccc(Br)cc3)cs2)CC1	.	.	.	60*	1	37	-2	-1	0.5	5.4
CC(C)N=C(NS(=O)(=O)c1ccc(Br)cc1)c1ccc(Cl)cc1	8	-2	-17	0	2	-6	0	?	0.6	3.1
CCCCNC(=O)COC(=O)c1ccc(N(C)C)cc1	0	6	-0.2	-1	-2	-1	-19	7	-0.2	-2.3
COc1ccc2cc(C(=O)COC(=O)COc3ccc4c(C)cc(=O)oc4c3)ccc2c1	.	.	.	1	-1	5	-5	8	-1.1	-9.2
N#Cc1cc2c(nc1SCC(=O)Nc1nccs1)CCCCC2	1	8	-0.2	23	-7	-7	4	-13	0.2	-2.7
O=C(CSc1ccc2nnc(-c3cccnc3)n2n1)Nc1cccc(F)c1	2	-3	-1.6	-13	-12	-8	-2	-4	0.8	-7.5

This is a subset; count on the stated rates, not on these rows.
